Screening data deposited in PubChem by several laboratories.
ALR inh: inhibitors of human sulfhydryl oxidase ALR; purified ALR, DTT oxidation, H2O2 HRP-luminol luminescence; P55789; actives 3.8% (n = 290,000); inhibition, % (concentration not given with the values);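 active means mean and each replicate at 75% or more; inconclusive means only one of the two met; inactive means neither met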;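 further: stock transfer was 7.5 nL into about 7.5 µL; 0% = neutral wells and 100% = wells with inactivated enzyme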
Target sequence (P55789 whole entry, looked up): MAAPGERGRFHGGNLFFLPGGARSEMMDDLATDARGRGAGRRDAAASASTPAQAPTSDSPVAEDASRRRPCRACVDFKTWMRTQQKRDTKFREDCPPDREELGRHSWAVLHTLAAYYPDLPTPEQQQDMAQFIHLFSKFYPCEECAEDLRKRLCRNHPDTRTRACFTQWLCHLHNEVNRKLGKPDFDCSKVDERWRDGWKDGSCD
HNF4A DNA FP: change in binding of human HNF4 alpha to DNA; AID 1224865; HNF4a-FITC DNA binding, fluorescence polarization, 1 h; actives 0.3% (n = 360,000); P41235; activity change, % at 10 µM; in the data active means activity change above about 30%, passing the limit was not always enough;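 further: controls were the assay level and a saturating level of protein; the project sought stronger binding though the title names inhibitors; some compounds called inactive have numbers as strong as hits; positive values seem to mean higher polarization but the record does not say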
Target sequence (P41235 whole entry, looked up): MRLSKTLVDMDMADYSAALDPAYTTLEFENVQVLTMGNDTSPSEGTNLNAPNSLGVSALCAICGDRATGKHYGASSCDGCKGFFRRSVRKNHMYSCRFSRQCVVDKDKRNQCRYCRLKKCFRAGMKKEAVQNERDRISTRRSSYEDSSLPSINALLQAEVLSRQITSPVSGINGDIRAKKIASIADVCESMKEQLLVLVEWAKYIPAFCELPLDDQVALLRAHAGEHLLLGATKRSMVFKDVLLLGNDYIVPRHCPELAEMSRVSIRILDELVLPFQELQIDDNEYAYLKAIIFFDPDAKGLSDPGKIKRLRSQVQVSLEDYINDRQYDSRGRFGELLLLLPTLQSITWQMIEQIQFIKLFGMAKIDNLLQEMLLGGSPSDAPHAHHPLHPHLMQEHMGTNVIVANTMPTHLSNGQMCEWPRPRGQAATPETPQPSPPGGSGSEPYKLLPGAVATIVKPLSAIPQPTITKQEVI
Calb FLC: C. albicans growth modulation with fluconazole; C. albicans CaCi-2 (fluconazole-resistant clinical isolate) + fluconazole, Alamar Blue growth, 48 h; growth inhibition, % (concentration not given with the values); actives 0.57% (n = 300,000);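 active means most replicates above 75%; inconclusive means exactly half above 75%; inactive means most below 75%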;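 further: all wells also contain fluconazole at 8 µg/ml as a sub-toxic cotreatment; 0% = median of DMSO wells and 100% = median of geldanamycin control wells; wells of about 8 µL received 7.5 nL stock; the first replicate is given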
Vif A3G: inhibitors of Vif binding to APOBEC3G peptide, primary screen, biochemical, TR-FRET, GST-Vif 1-94, biotin-A3G peptide, dose response retest (AID 1117319). TR-FRET GST-Vif / biotin-A3G peptide binding; higher % means a stronger effect; test concentration not given here; strong numbers were not always called active. inhibition, %; hits with a dose series show IC50 in µM. actives 0.57% (n = 260,000);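 active means above the screen mean plus three standard deviations and confirmed in dose response; inconclusive means results disagree or hit not tested in dose response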;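 further: Vif residues 1-94 fused to GST binding biotinylated APOBEC3G peptide 110-148; 0% = full assay without inhibitor and 100% = GST in place of GST-Vif; retest series ran down from 100 µM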
LANA-H2A inh: blocks KSHV LANA binding to histone H2A/H2B | Q9QR71 | actives 0.6% (n = 320,000) | AID 2629 | inhibition, % (no concentration beside the values) | cell-free LANA-H2A/H2B peptide, fluorescence polarization; in the data active means inhibition mostly above about 10%, no sharp cut-off; inactive means mostly below about 6.7%;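 further: stock transfer was 7.5 nL into about 10 µL; 0% = median of vehicle wells and 100% = median of positive control wells; one replicate is shown; the record names a cut of 25% in any replicate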
RanGTP-Impb inh: disruptors of Ran-importin-beta complex formation – biochemical, FRET, CFP-Ran, YFP-importin-beta, homogeneous, primary screen; inhibition, % (test concentration not listed); AID 2216; actives 1.1% (n = 300,000); cell-free CFP-Ran/YFP-importin-beta FRET ratio;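 active means most replicates above 15%; inconclusive means exactly half above 15%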;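 further: 0% = DMSO wells and 100% = Ran loaded with GDP instead of GTP; wells of about 40 µL received 100 nL stock; the first replicate is given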
Beta2AR agonist: human beta-2 adrenergic receptor agonism by FAP; actives 0.43% (n = 340,000); Am2.2-beta2AR cells, FAP receptor internalization, flow cytometry; reference of the scale not given here; response, % (concentration not given with the values); P07550;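 active means response above a set limit, near 3 SD of response in nonfluorescent compounds, cut at about 42% in these data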;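 further: stock transfer was 100 nL into about 11 µL; a reference agonist was the positive control; negative values mostly stem from fluorescent compounds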
Target sequence (P07550 whole entry, looked up): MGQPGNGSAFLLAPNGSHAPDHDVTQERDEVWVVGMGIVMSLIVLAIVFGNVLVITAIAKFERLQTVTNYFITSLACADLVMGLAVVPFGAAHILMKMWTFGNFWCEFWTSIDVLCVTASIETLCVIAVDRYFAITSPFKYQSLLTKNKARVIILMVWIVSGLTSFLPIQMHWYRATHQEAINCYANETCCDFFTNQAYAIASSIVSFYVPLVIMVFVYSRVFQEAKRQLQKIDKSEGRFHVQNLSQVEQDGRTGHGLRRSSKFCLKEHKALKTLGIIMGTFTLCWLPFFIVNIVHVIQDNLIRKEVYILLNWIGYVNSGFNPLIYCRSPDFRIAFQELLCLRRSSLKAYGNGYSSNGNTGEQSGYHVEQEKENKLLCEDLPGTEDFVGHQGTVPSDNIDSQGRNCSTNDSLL
The depositor's hits bear a star; i = inactive; ? = inconclusive; nt = no result given; & = joins results of further samples.

SMILES	ALR inh	HNF4A DNA FP	Calb FLC	Vif A3G	LANA-H2A inh	RanGTP-Impb inh	Beta2AR agonist
CC1CC(OCC(O)C[N+]2(C)CCOCC2)CC(C)(C)C1 (configuration not stated)	-2	2.8	-12	-1%	-1.1	-2.0	-8
O=C(NC1CCCCCCC1)C1=COCCO1	-3	-4.5	-1	-4%	-6.7	-3.3	1
Cc1nc(C)c(C(=O)C2=C(O)C(=O)N(CCN(C)C)C2c2ccccc2)s1 (configuration not stated)	1	6.6	-2	-1%	3.1	-1.9	-4
COc1ccc(N2CCN(CCNC(=O)CCN3C(=O)COc4ccccc43)CC2)cc1	80*	-4.7	-1	-3%	-4.8	-3.4	1
NC(=S)n1[nH]c(-c2ccc([N+](=O)[O-])cc2)c(N=Nc2cccc([N+](=O)[O-])c2)c1=O	nt	-53	100*	11%	nt	-4.3	13
COc1cc(C(=O)NCC(=O)OCC(=O)c2cccc3ccccc23)cc(OC)c1OC	-16	9.3	16	nt	2.2	-4.2	0
Cc1c(C(=O)O)cccc1-n1c(C)cc(/C=N/Nc2ccc([N+](=O)[O-])cn2)c1C	nt	5.8	3	13µM*	-2.0	3.4	15
COc1ccc(-n2c(-c3ccccc3)nnc2-c2ccc(Cl)cc2)cc1	-6	-1.4	2	1%	i	-1.0	3
O=C(Cc1ccccc1)NCc1ccccn1	nt	1.9	19	nt	-3.2	3.7	-2
COc1ccc(/C=C(\NC(=O)c2ccc(OC)cc2)C(=O)N2CCCCC2)cc1	1	-2.0	-9	nt	-0.7	-4.4	6
C=CCc1ccc(OCCCCN2CC(C)CC(C)C2)c(OC)c1 (configuration not stated)	-16	5.6	-7	9%	-2.6	-4.5	4
CCN(CC)C(=S)NC(=O)c1cc(OC)c(OC)c(OC)c1	6	-3.1	-2	-6%	-6.9	4.6	1
Cc1sc(N2CCN(S(=O)(=O)c3ccc4c(c3)NC(=O)CO4)CC2)nc1-c1ccccc1	0	1.4	0	nt	-3.7	-4.0	-1
CCN(CC)C(=O)Oc1ccc(Cl)c2ccccc12	3	0.8	-19	31%	-5.9	5.9	3
COc1ccc(C(=O)OCC(=O)c2ccc(S(=O)(=O)N3CCCCC3)cc2)c(OC)c1	nt	-4.0	nt	8%	nt	nt	-1
CCc1cccc(CC)c1NC(=O)COC(=O)C1(C)CC1(Cl)Cl (configuration not stated)	-2	0.8	-16	-2%	0.8	-1.0	7
CCOc1ncccc1C(=O)OCC(=O)Nc1nnc(-c2ccccc2)o1	4	-0.2	9	-3%	-1.9	-1.5	0
O=C(CCCCCN1C(=O)CCC1=O)NCc1ccccc1	-9	2.5	-6	0%	-5.0	1.6	5
Cc1cccc2c1nc(-c1ccccc1)n1nnnc21	-7	0.0	18	15%	-1.3	4.1	5
C=COc1ccc(N2C(=O)c3ccccc3OC2C)cc1 (configuration not stated)	nt	-2.3	-10	-6%	-4.3	4.9	5
CC1CCN(Cc2nnnn2CCCC(=O)N(C)C2CCOC2)CC1 (configuration not stated)	-50	2.0	2	nt	-0.7	-0.2	0
COC(=O)/C(=C\c1ccc([N+](=O)[O-])cc1)NC(=O)c1ccccc1	nt	2.3	nt	6%	nt	nt	-2
O=C(Nc1ccc(N2CCN(C(=O)c3ccccc3)CC2)c(Cl)c1)c1ccc(Br)o1	-2	1.2	-22	27%	0.6	-1.1	13
Cc1ccc(NC(=O)c2ccc(OC(=O)COc3ccc(Cl)c(C)c3)cc2)cc1	25	0.3	-20	-6%	4.4	2.2	-3
O=C(CN1C(=O)C2CC=CCC2C1=O)Nc1nnc(SCc2c(Cl)cccc2Cl)s1 (configuration not stated)	-3	0.5	0	-4%	-6.2	-5.4	4
Cc1n[nH]c(C)c1CN(C)C(=O)c1cc(COc2ccc(F)c(F)c2)on1	-5	-3.5	10	20%	-3.0	4.5	5
Cc1ccc([C@@H]2[C@@H]3C(=O)N(C)C(=O)[C@@H]3[C@]3(C)C(=O)N(Cc4ccccn4)CC(=O)N23)o1	-2	-3.4	6	nt	-3.5	0.8	-8
NNC(=O)COc1cccc(Oc2ccccc2)c1	49	-0.8	?	?	-1.8	1.2	-10
O=C(Cn1cnc2c(nc3n2CCCCC3)c1=O)Nc1cccc(C(F)(F)F)c1	7	0.3	1	-1%	-0.8	?	3
CCCCCC(O)CCc1n[nH]c(=S)n1-c1ccccc1 (configuration not stated)	26	-2.3	-6	5%	-1.6	5.8	1
O=C(NCCc1ccccc1)c1ccc(NC(=O)C2CCCCC2)cc1	nt	0.5	nt	0%	nt	nt	-9
NS(=O)(=O)c1ccc(CCNC(=O)c2ccc(NC3=NC4CS(=O)(=O)CC4S3)cc2)cc1 (configuration not stated)	-3	4.3	5	nt	0.5	-0.5	-2
O=S1(=O)CC(N2CCOCC2)c2ccccc21 (configuration not stated)	nt	-1.2	6	0%	-3.8	-2.2	-7
C=CCn1c(SCc2c(C)noc2C)nc2ccccc2c1=O	4	-5.3	20	0%	4.6	4.1	26
O=C(COC(=O)c1ccc([N+](=O)[O-])o1)Nc1nc2ccccc2s1	nt	4.6	-16	19%	-1.7	1.5	-7
CNc1nc(Cl)nc(NC(C)(C)C)n1	-14	-1.7	-2	-2%	2.7	1.8	-4
Cc1ccc(NS(=O)(=O)c2sc3ccc(Cl)cc3c2C)cc1	-7	1.4	-10	nt	-4.4	-0.5	-4
CCCN(CCC)CCCNC(=O)Cn1cnc2sc(C)c(S(=O)(=O)N3CCOCC3)c2c1=O	-1	-1.8	4	nt	9.9	6.0	1
CC12CN(Cc3ccccc3)CC(C)(CN(Cc3ccccc3)C1)C2=NO	-3	-1.4	-19	24%	-3.3	-2.8	-1
c1ccc(CCNc2ncnc3scc(C4COc5ccccc5O4)c23)cc1 (configuration not stated)	-1	2.8	-18	?	-2.3	3.2	31
Cc1noc2ncnc(Sc3ccccc3Cl)c12	2	1.4	0	?	-0.6	2.2	8
Cc1cccc2cc(/C=C/C(=O)c3ccco3)c(Cl)nc12	5	4.4	-4	?	-1.0	-3.1	-1
O=C(NCc1ccccn1)c1ccc(CS(=O)(=O)Cc2ccc(Cl)cc2)o1	0	0.1	-13	-6%	-2.8	6.6	11
CCOC(=O)c1ccc2[nH]c3c(c2c1)CCCC3C(=O)OCC (configuration not stated)	0	1.7	-2	0%	-1.0	9.0	7
Cc1ccccc1NS(=O)(=O)c1cccc(-c2nnc(-c3ccccc3)o2)c1	-1	2.1	21	?	0.7	2.8	2
Cn1c(C(=O)N2CCCCCC2)cc2c(=O)n(C)c3ccccc3c21	-9	1.5	6	4%	-11	-4.9	6
CCc1cc(C(=O)OC)c(NC(=O)C2CC(=O)NN2Cc2ccccc2)s1 (configuration not stated)	-18	2.0	9	4%	-3.1	-4.3	-4
Cc1ccc(Cl)cc1NC(=O)C1CC(=O)N(C(C)C)C1 (configuration not stated)	-13	5.1	6	nt	-1.8	-3.9	-2
CCn1cc(C(=O)N2CCCC(CO)(Cc3ccccc3C)C2)cn1 (configuration not stated)	2	0.1	0	nt	-0.7	4.5	4
CCN1CCN(CC(=O)n2c3c(c4ccccc42)CC(C)CC3)CC1 (configuration not stated)	35	0.0	2	0%	-3.2	2.4	25
COc1ccc(C#Cc2c(-c3ccsc3)oc3ccc(N4CCOCC4)cc23)cc1	-2	-2.8	3	nt	0.1	-3.7	9
COc1ccc(CCN2C(=O)C3CC=C(C)CC3C2=O)cc1OC (configuration not stated)	-8	-0.1	-4	-1%	-3.7	5.0	1
Cc1ccc(C)c(Cn2c(=O)n(CCCC(=O)NCc3ccco3)c(=O)c3ccccc32)c1	-1	4.8	1	0%	-1.9	-4.3	-9
O=C(Nc1cccc(F)c1)C1CCN(c2nnnn2-c2ccccc2)CC1	-4	-1.4	17	1%	-1.8	2.0	-7
CC(C(=O)N=Nc1c(O)n(C)c2ccc(Br)cc12)n1cnc2ccccc2c1=O (configuration not stated)	nt	nt	-10	3%	-3.8	-0.4	nt
CCC(C(=O)NCCCN1CCOCC1)n1c2ccccc2c2nc(=O)cc(C)n21 (configuration not stated)	-5	-2.3	-1	nt	3.0	-1.3	-2
COc1ccc([N+](=O)[O-])cc1NC(=O)COC(=O)C=C(C)C	0	-4.2	-10	-4%	2.3	nt	-2
O=S(=O)(c1ccc2ccccc2c1)N1C=CC(C(F)(F)F)=NCC1	1	2.8	9	-1%	-2.8	0.6	8
CCOCCCn1c(=N)c(S(=O)(=O)c2ccccc2)cc2c(=O)n3cc(C)ccc3nc21	5	-0.4	-8	-5%	4.3	160*	4
Nc1ncccc1OCc1ccc(Cl)c(Cl)c1	-9	-2.0	-8	nt	8.2	?	7

Continued.
SMILES	ALR inh	HNF4A DNA FP	Calb FLC	Vif A3G	LANA-H2A inh	RanGTP-Impb inh	Beta2AR agonist
CCCCOC(=O)C1C2CCC(O2)C1C(=O)OCC (configuration not stated)	nt	-1.7	nt	2%	nt	nt	1
COc1ccccc1COCC(O)CN1CCCCC1CO (configuration not stated)	-2	0.5	-16	-4%	1.4	3.7	0
COc1ccccc1CNc1ncnc2cc(Cl)ccc12	nt	-2.3	-6	nt	nt	0.9	-6
c1cc(CNC23CC4CC(CC(C4)C2)C3)ccn1	-3	1.4	21	25%	-1.3	-1.3	1
OC(COc1cccc2ccccc12)CN1CCN(c2ccccc2Cl)CC1 (configuration not stated)	2	-0.6	11	1%	1.6	-5.1	2
O=C(CSc1cccc[n+]1[O-])NN(c1ccccc1)c1ccccc1	nt	-4.7	-4	20%	-1.8	2.9	4
C=CCCCCCCCCC(=O)Nc1c[nH]c(=O)[nH]c1=O	-6	-0.5	-16	0%	4.2	3.4	-7
Cc1ccccc1C(=O)c1cccn1CC(=O)N1CCCCCC1	-2	-4.6	-1	?	5.4	0.4	-5
COc1cc2cc(CN(CCCO)S(=O)(=O)c3ccccc3)c(=O)[nH]c2cc1OC	-3	-0.9	14	18%	-1.6	0.2	1
CCN(CC(=O)N(CC(C)C)c1c(N)n(CC(C)C)c(=O)[nH]c1=O)Cc1nc2ccccc2c(=O)[nH]1	-11	0.4	-5	nt	6.4	4.4	5
O=[N+]([O-])c1ccc(NC2CCCC2)cc1	2	1.8	0	nt	-11	?	1
CC(C)N=C(NC#N)SCc1ccccc1F	1	-5.5	-5	2%	3.1	-0.8	-1

Whole records from above.
`O=S1(=O)CC(N2CCOCC2)c2ccccc21` (configuration not stated) as listed: ALR inh = nt; HNF4A DNA FP = -1.2; Calb FLC = 6; Vif A3G = 0%; LANA-H2A inh = -3.8; RanGTP-Impb inh = -2.2; Beta2AR agonist = -7
`COc1ccccc1CNc1ncnc2cc(Cl)ccc12` as listed: ALR inh = nt; HNF4A DNA FP = -2.3; Calb FLC = -6; Vif A3G = nt; LANA-H2A inh = nt; RanGTP-Impb inh = 0.9; Beta2AR agonist = -6

Next section.
SMILES	ALR inh	HNF4A DNA FP	Calb FLC	Vif A3G	LANA-H2A inh	RanGTP-Impb inh	Beta2AR agonist
CCN(CC(=O)Nc1c(F)cccc1F)C(=O)c1ccc(C)c(S(=O)(=O)N2CCCCC2)c1	-3	-1.6	-1	7%	-2.4	2.6	-3
COc1ccc(Nc2nc(N)nc(C(F)(F)F)n2)c(OC)c1	-5	-0.8	-6	4%	-0.1	2.0	-5
Cc1ccc(OCC(=O)NC(=S)Nc2cccc(NC(=O)c3ccccc3)c2)cc1	-12	0.7	17	-10%	4.2	-3.5	-7
Cn1cc(C2N3CC4(C)CN2CC(C)(C3)C4=O)c2ccccc21 (configuration not stated)	-4	3.2	9	0%	2.0	nt	-2
O=C(NCCc1nnc2ccccn12)c1cccs1	nt	-0.3	-19	nt	4.6	-0.9	-2
COC(=O)Nc1ccc(S(=O)(=O)N(C)CC(F)(F)C(F)F)cc1	-2	1.0	-6	-5%	-2.8	6.8	7
COc1ccc(C(c2nnnn2Cc2ccc(F)cc2)N2CCN(c3ccccc3)CC2)cc1 (configuration not stated)	-6	1.9	0	25%&0%	11	2.5	7
